KCNQ2 inh – KCNQ2 channel blockers in CHO-K1 cells – cell-based, FluxOR thallium flux, B-score, primary screen (AID 2156) | 20 min; stronger effect = lower value; only compounds with negative scores are shown here; some inactives read as strong as hits | B-score at 10 µM | 310,000 tested, 1.1% active | O88943;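 active means fluorescence ratio B-score at most minus 3 library SDs, with starting brightness B-score within 2 library SDs, cut at about -5.5 in these data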
Target sequence (O88943 whole entry, looked up): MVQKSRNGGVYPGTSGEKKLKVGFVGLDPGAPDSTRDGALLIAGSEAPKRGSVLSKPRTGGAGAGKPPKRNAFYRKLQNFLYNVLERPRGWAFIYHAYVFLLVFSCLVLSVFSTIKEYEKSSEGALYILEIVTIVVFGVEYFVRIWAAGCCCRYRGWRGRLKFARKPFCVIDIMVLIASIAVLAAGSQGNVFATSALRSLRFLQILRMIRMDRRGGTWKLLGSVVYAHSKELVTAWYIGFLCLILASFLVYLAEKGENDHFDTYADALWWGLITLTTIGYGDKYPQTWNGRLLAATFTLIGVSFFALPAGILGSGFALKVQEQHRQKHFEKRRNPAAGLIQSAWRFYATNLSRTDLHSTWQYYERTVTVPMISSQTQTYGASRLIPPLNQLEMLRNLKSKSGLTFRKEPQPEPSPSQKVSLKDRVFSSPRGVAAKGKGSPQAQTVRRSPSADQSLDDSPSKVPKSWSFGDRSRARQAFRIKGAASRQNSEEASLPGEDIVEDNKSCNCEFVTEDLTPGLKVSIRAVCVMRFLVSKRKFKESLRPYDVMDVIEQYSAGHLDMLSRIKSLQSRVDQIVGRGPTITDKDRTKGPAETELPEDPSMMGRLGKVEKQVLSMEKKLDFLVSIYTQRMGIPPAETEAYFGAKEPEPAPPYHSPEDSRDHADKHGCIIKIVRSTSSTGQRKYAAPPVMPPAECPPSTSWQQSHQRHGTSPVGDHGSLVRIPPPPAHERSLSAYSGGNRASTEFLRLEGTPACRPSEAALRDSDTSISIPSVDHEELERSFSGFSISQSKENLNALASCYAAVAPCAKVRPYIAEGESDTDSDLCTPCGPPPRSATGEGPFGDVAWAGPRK
KCNQ2 inh baseline – second read-out of KCNQ2 inh, no call of its own (marks repeat the call); B-score; measured here: initial fluorescence intensity artifact check;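 brightness before thallium and not channel activity; 0 = typical well and far values either way flag optical interference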
Starred values were filed as active, the others as inactive; i = inactive.

SMILES | KCNQ2 inh | KCNQ2 inh baseline
Oc1[nH]c(=S)sc1/C=C1\C(c2ccccc2)=Nc2ccccc21 | i | 1.4
Cc1ccc(S(=O)(=O)N/N=C/c2ccc(OCC(=O)NC(C)C)cc2)cc1 | i | -0.03
O=C(CCC1CCCN(C(=O)c2cncs2)C1)NCc1ccc(F)c(F)c1 (stereo not drawn) | i | -0.17
CCc1ccc(C2CC(=O)N3CN(c4ccccc4)CSC3=C2C#N)cc1 (stereo not drawn) | i | 1.3
Nc1c2c(nc3cccc(Cl)c13)N(c1ccccc1)CC2 | i | 0.98
CCOC(=O)c1ccc(NC(=O)C2(c3ccccc3)CCOCC2)cc1 | i | -0.71
CN1CCN(C(=O)C2=C[C@@H](C3CCCCC3)C[C@@H](OCc3ccc(CO)cc3)O2)CC1 | i | 0.43
CC1=CC(=O)C(C(C)C)=CC1=NC(=O)c1ccc(C)cc1 | i | 1
O=C(CN1C(=O)NC2(CCc3ccccc32)C1=O)c1ccc(Cl)cc1 (stereo not drawn) | i | -0.54
O=C(CNc1ccccc1)N/N=C/c1c[nH]c2ccccc12 | i | -0.42
COc1ccccc1NCC(=O)N/N=C(\C)c1cccs1 | i | 0.27
CCOc1ccccc1NC(=O)c1cccc2c1C(=O)N(C1CCCCC1)C2 | -6.3* | 2.8*
CCCCC(CC(O)COCCC)C(=O)NN (stereo not drawn) | i | 2.4
c1ccc(CSc2ncn[nH]2)nc1 | i | 1
c1ccc2c(c1)c1ccccc1n2CN1CCOCC1 | i | -0.89
COc1ccc(CNC(=O)CN2C(=O)COc3ccc(S(=O)(=O)NC4CCCC4)cc32)cc1 | i | -2.1
CCN(CC)S(=O)(=O)c1ccc(/C=C/C(=O)OCC(=O)NCc2ccc3c(c2)OCO3)cc1 | i | 0.54
Cc1cccc(NC(=O)NNC(=O)COc2ccc([N+](=O)[O-])cc2)c1C | i | -0.17
COCC1CCCCN1C(=O)c1ccc(OC)c(OC2CCN(C(C)C)CC2)c1 (stereo not drawn) | i | 0.2
CCOC(=O)c1cc(C)sc1/N=C/C1C(=O)CCCC1=O | i | 1.2
Cc1ccc(/C=N/N2CCN(c3ccncc3S(=O)(=O)N3CCCCC3)CC2)cc1 | i | -0.29
COCCOc1ccc(C(F)(F)F)cc1NC(=O)COC(=O)c1cc[n+]([O-])cc1 | i | 0.04
CC(=O)c1cccc(NC(=O)CN2C(=O)NC3(CCCCCCC3)C2=O)c1 | i | -2.7
Cc1ccc(-c2cc([C@H]3[C@H]4C=CC[C@@H](C)[C@@H]4C(=O)N3Cc3ccccc3)ccc2F)cc1 | i | -1.2
O=S(=O)(c1ccc(Cl)s1)N1CCC2(CC1)OCCO2 | i | 0.04
SMILES | KCNQ2 inh | KCNQ2 inh baseline
CC(C)(C)[C@H]1C=C(C(=O)NCc2nc3ccccc3[nH]2)O[C@@H](OCc2ccc(CO)cc2)C1 | i | -0.81
COc1cccc(OC)c1CNC(=O)C1CCC(=O)N(CC2CCCCC2)C1 (stereo not drawn) | i | 2.4
CN1CCN(C(=O)c2ccc(Cl)c(S(=O)(=O)N3CCCCC3)c2)CC1 | i | 0.03
CSc1cccc(CN2CCN(CCc3ccccc3)C(CCO)C2)c1 (stereo not drawn) | i | 1.9
Cc1cccc2cc(C#N)c(N3CCC(O)CC3)nc12 | i | 0.95
CCCc1cc(C(=O)Nc2ccc(F)cc2F)no1 | i | 1.7
C[n+]1ccc(C(=O)NCc2ccccc2)cc1 | i | -0.71
CC1(C)CC(=O)C2=C(C1)c1c(ccc3ccccc13)NC2c1cc([N+](=O)[O-])cc([N+](=O)[O-])c1O (stereo not drawn) | i | -2.4
C[C@H](O)[C@@]1(O)CC[C@H]2[C@@H]3CC[C@@H]4C[C@H](O)CC[C@]4(C)[C@H]3CC[C@@]21C | i | -3.3
COCCn1c(NCc2ccccc2)nc2c1c(=O)[nH]c(=O)n2C | i | -0.49
CCOC(=O)c1c(NC(=O)c2cccnc2)sc(C(C)=O)c1C | i | -2.8
CCc1nn(CCCC(=O)NCc2ccco2)c(=O)c2cc3occc3n12 | i | -1.5
Cc1cccc(CSCCNC(=O)COc2ccc(Cl)cc2)c1 | i | 1.1
CC(C)(C)S(=O)(=O)c1cnc(N2CCCCC2)nc1N | i | 0.15
O=C(N/N=C/c1ccc(O)cc1)c1cncc(Br)c1 | i | -0.03
CCc1ccc(C(O)(CNCc2ccccc2)c2ccccc2)cc1 (stereo not drawn) | -6.9* | 1.1*
COc1ccc(-c2csc(NC(=O)CCN3C(=O)C4CC=CCC4C3=O)n2)cc1OC (stereo not drawn) | i | 0.05
Cc1[nH]c2ccccc2c1SCCN | i | -1.8
Cc1nc(SCc2ccccc2)nc2c1CCC2 | i | 0.94
O=C(CN1C2CCC1CC(NC(=O)NC1CCCCC1)C2)NC1CC1 (stereo not drawn) | i | 0.61
Cc1cccc(-n2nc([N+](=O)[O-])c(=NCc3cccnc3)n2O)c1 | i | 2.1
COc1cc(/C=N\NC(=O)c2nonc2N)c(OC)cc1Br | i | 1.6
NNC(=S)Nc1ccc(S(=O)(=O)N2CCCCC2)cc1 | i | -1
Cc1ccc(C(=O)c2ccccc2C(=O)OCC(=O)NCCc2ccccc2)cc1 | i | 0.58
O=C(Nc1ccc2c(c1)OCO2)C1COc2ccccc2O1 (stereo not drawn) | i | 3.1
SMILES | KCNQ2 inh | KCNQ2 inh baseline
COc1ccc(/C=N/NC(=O)c2ccncc2)c(OC)c1 | i | -0.64
Cc1ccc[n+](CC(=O)N2CCCc3ccccc32)c1 | i | 0.02
CCCn1c(=O)c(C#N)cn(C2CC2)c1=O | i | -0.01
COc1ccccc1NC(=S)NC1CCC(CC2CCC(NC(=S)Nc3ccccc3OC)CC2)CC1 (stereo not drawn) | i | 0.18
O=[N+]([O-])c1ccc2[nH]c3c(c2c1)CCCC3 | i | -0.97
O=C(c1c(F)cccc1F)N(Cc1ccccc1)Cc1ccccc1 | i | -1.1
COCCN(C(=O)COC(=O)c1ccc(Cl)nc1)c1c(N)n(Cc2ccccc2)c(=O)[nH]c1=O | i | 0.45
O=C(O)Cc1ccc(OCc2ccc(Cl)nc2)cc1 | i | 0.88
Cc1ccc(CNC(=O)[C@H]2C[C@@H]2[C@H](NP(=O)(c2ccccc2)c2ccccc2)c2ccccc2)o1 | i | -0.26
c1ccc(NCc2nc3ccccc3n2CCOc2ccccc2)cc1 | i | -0.71
O=c1c2cccnc2[nH]c(=S)n1Cc1ccccc1 | i | 0.08
O=C(O)[C@@H]1Cc2c([nH]c3ccccc23)C2CCC(=O)N21 (stereo partly drawn) | i | 1.4
CS(=O)(=O)NNC(=O)Cn1nnc(-c2ccc(OCc3ccccc3Cl)cc2)n1 | i | 0.88
O=C(O)Cn1c(SCCOc2ccccc2)nc2ccccc21 | i | -1.4
CNC(=O)NC1CCCCc2sccc21 (stereo not drawn) | i | 0.91
Cc1c(C(=O)OC(C)C)sc(N)c1C(=O)OC(C)C | i | -0.95
CC1=CC=CC2=NC(=O)CC(C)(C(=O)N(CC(=O)NC3CCCC3)c3ccccc3C)N12 (stereo not drawn) | i | 3.8
COc1ccc(CN2CCn3nc(C(=O)NC4CC4)cc3C2=O)cc1 | i | -0.14
CCNC(=O)Nn1c(-c2ccccc2)nc2ccccc2c1=O | i | -0.04
Cc1cccn2c(=O)c3cc(S(=O)(=O)c4ccc(Br)cc4)c(=N)n(C4CCCCC4)c3nc12 | i | -0.06
COc1ccc(CNC(=O)CSc2nn3c(=O)c(C(C)(C)C)nnc3s2)cc1OC | i | -0.02
CCN(CC(=O)Nc1c(F)cccc1F)C(=O)CSCC(=O)Nc1ccc(OC)cc1 | i | 0.4
COC(=O)Cc1ccc(Oc2ncc(C(F)(F)F)cc2Cl)cc1 | i | -0.65
CCCn1c(SCC(=O)NCc2ccc(F)cc2)n[nH]c1=O | i | 0.21
O=C(COc1coc(CN2CCc3ccccc3C2)cc1=O)Nc1ccccc1F | i | -2.3

Of the compounds above, these contain a tert-butyl group.
SMILES | KCNQ2 inh | KCNQ2 inh baseline
CC(C)(C)[C@H]1C=C(C(=O)NCc2nc3ccccc3[nH]2)O[C@@H](OCc2ccc(CO)cc2)C1 | i | -0.81
CC(C)(C)S(=O)(=O)c1cnc(N2CCCCC2)nc1N | i | 0.15
COc1ccc(CNC(=O)CSc2nn3c(=O)c(C(C)(C)C)nnc3s2)cc1OC | i | -0.02

Continued:
SMILES | KCNQ2 inh | KCNQ2 inh baseline
O=C(COc1cc(Cl)c(Cl)cc1Cl)Nn1cnnc1 | i | 0.26
O=C(c1ccc(F)cc1Cl)N(c1ccccn1)C1CCCCC1 | i | -2.7
Cc1cc(SCC(=O)c2cc3ccccc3o2)nc2ccccc12 | i | 0.39
O=C(CCl)N(c1ccccc1)c1c[nH]c2ccccc12 | i | 1.8
COC(=O)C1=C(C)N=c2s/c(=C/c3ccoc3)c(=O)n2C1c1ccccc1 (stereo not drawn) | i | 6.6
Cc1cc(C(=O)N/N=C/c2cc(Br)cc(Br)c2OC(=O)c2ccccc2)n[nH]1 | i | 0.95
C=CCN1C(=O)C(CC(=O)Nc2ccc(OCCC)cc2)N(CCCN2CCN(Cc3ccccc3)CC2)C1=S (stereo not drawn) | -6.8* | -2.4*
COc1ccc(C(=O)Nc2ccccc2N2CCCC2)cc1S(=O)(=O)N1CCOCC1 | i | 4.7
COc1ccc(CCNC(=O)CSc2nnnn2C)cc1OC | i | -0.17
COC(=O)c1ccc(N/C=C/C(=O)c2ccc(OC)c(OC)c2)cc1 | i | 1
Cc1ccc(C)c(S(=O)(=O)N2CCN(C(=O)c3cc(-c4cccs4)nn3-c3ccccc3)CC2)c1 | i | 0.18
CC(C)[C@@H](C(=O)N1CCN(Cc2ccc3c(c2)OCO3)CC1)n1nnc2ccccc2c1=O | i | -0.43
Cc1ccc(NC2CCCN(C(=O)CN3C(=O)CSC3=O)C2)cc1C (stereo not drawn) | i | 0.86
Cc1ccc(NC(=O)c2cccs2)cc1NC(=O)c1ccc(F)cc1 | i | -0.2
CC1CCC(C(C)C)C(OC(=O)COC(=O)c2ccc(N)cc2)C1 (stereo not drawn) | i | -2
O=C(ONC1=NCCCCC1)c1c(F)cccc1F | i | 0.37
Cc1ccc(C)c(C(=O)COC(=O)c2ccc(Br)o2)c1 | i | -1
Cc1ccc2nc(-c3ccc(NS(=O)(=O)c4ccc(F)c(F)c4)cc3)sc2c1 | i | 1.7
CCN(CC)S(=O)(=O)c1cccc(NC(=O)COC(=O)c2cc(=O)c3ccccc3o2)c1 | i | 1.1
COC(=O)Cc1cn(-c2ncc(C(F)(F)F)cc2Cl)c2ccccc12 | i | -1.1
CC1CCc2nn(CC(=O)Nc3c(F)cc(F)cc3Br)cc2C1 (stereo not drawn) | i | -0.28
O=C(Nc1ccc(F)cc1)Nc1cc(OCC(F)(F)F)cc(OCC(F)(F)F)c1 | i | -0.03
CC(C)C(=O)N1CCN(c2ccccc2NC(=O)COc2ccccc2)CC1 | i | -0.24
Cc1noc(C)c1COC(=O)CCN1c2ccccc2Sc2ccccc21 | i | -0.2
Cc1ccc(N2C(=O)CC3(CC4C=CC3C4)C2=O)cc1 (stereo not drawn) | i | -0.04

Compounds listed so far with bromine, in the order listed:
SMILES | KCNQ2 inh | KCNQ2 inh baseline
O=C(N/N=C/c1ccc(O)cc1)c1cncc(Br)c1 | i | -0.03
COc1cc(/C=N\NC(=O)c2nonc2N)c(OC)cc1Br | i | 1.6
Cc1cccn2c(=O)c3cc(S(=O)(=O)c4ccc(Br)cc4)c(=N)n(C4CCCCC4)c3nc12 | i | -0.06
Cc1cc(C(=O)N/N=C/c2cc(Br)cc(Br)c2OC(=O)c2ccccc2)n[nH]1 | i | 0.95
Cc1ccc(C)c(C(=O)COC(=O)c2ccc(Br)o2)c1 | i | -1
CC1CCc2nn(CC(=O)Nc3c(F)cc(F)cc3Br)cc2C1 (stereo not drawn) | i | -0.28

Whole records from above:
`O=C(Nc1ccc(F)cc1)Nc1cc(OCC(F)(F)F)cc(OCC(F)(F)F)c1` is listed as KCNQ2 inh: i; KCNQ2 inh baseline: -0.03
`CC(C)[C@@H](C(=O)N1CCN(Cc2ccc3c(c2)OCO3)CC1)n1nnc2ccccc2c1=O` is listed as KCNQ2 inh: i; KCNQ2 inh baseline: -0.43

The list continues:
SMILES | KCNQ2 inh | KCNQ2 inh baseline
O=C(Cn1nnc(-c2cccs2)n1)Nc1ccccc1C(F)(F)F | i | 3.9
CC(CCn1cccn1)NC(=O)CCc1nnc(C2CCCCC2)o1 (stereo not drawn) | i | -0.03
COc1cc(/C=N/Nc2ccccc2C(F)(F)F)ccc1O | i | 0.98
CCOC(=O)c1ccc(NS(=O)(=O)c2c(C)n(C)c(=O)n(C)c2=O)cc1 | i | 1.9
CCC(=O)Nc1cc(OC)c(NC(=O)c2ccccc2)cc1OC | i | 0.89
CCCN1Cc2cccc(C(=O)NCCc3ccccc3)c2C1=O | i | -0.58
CCCCOc1ccccc1C1C(C(=O)OC)=C(C)N(C)C(C)=C1C(=O)OC | i | 0.1
O=[N+]([O-])c1ccc(O)c(-c2nc(-c3ccccc3)c(-c3cccs3)[nH]2)c1 | i | 0.59
CCN(CC)Cc1nc2c(c(=O)[nH]1)C1(CCCC1)Cc1ccccc1-2 | i | 0.53
CCCS(=O)(=O)c1csc(C(=O)OC)c1N | i | -0.38
CCn1c(COc2cccc(OC)c2)nnc1SCC(=O)NC1CCCC1 | i | 0.62
COC(=O)Cn1c2nc3ccccc3nc2c2cccc(C)c21 | i | -0.27
Cc1ccc(C)c(OCCC(=O)OCC(=O)Nc2ccc(Cl)cn2)c1 | i | 0.94
COc1cccc(/C=C2\SC(=S)N(CCCC(=O)Nc3cc(C)on3)C2=O)c1 | i | -0.01
O=C(Nc1nc2ccccc2[nH]1)C1CCC1 | i | -1.5
CCOC(=O)c1c(-c2ncc(C(F)(F)F)cc2Cl)noc1C | i | -0.54
COc1ccc(NC(=O)NCc2cccnc2)cc1 | i | -0.52

Bioassay records (PubChem)

The list is partial. The share of hits here may be higher or lower than overall.
